Bioassay records (PubChem)
PK Bst – Pyruvate Kinase; partly purified Bacillus stearothermophilus pyruvate kinase, luminescence ATP production; ribose 5-phosphate activator present at AC10; Potency, µM; actives 1.2% (n = 51,000); in the data active means potency below about 11 µM; inconclusive means mostly about 12 µM to 25 µM; inactive means weaker than that;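 the screen sought inhibitors and activators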;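 also: potency is read from the fitted curve at half-maximal effect; scaled between full activation by ribose 5 phosphate and full inhibition by luteolin; about four in five hits inhibit and the cells do not say which; series up to 57 µM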
YjeE inh – qHTS Assay for Inhibitors of YjeE; actives 0.05% (n = 71,000); Potency, µM; purified YjeE, fluorescence polarisation of a bound ADP probe; tRNA threonylcarbamoyladenosine biosynthesis protein TsaE (Escherichia coli (strain …; AID 605, 2007; active = well fitted falling curve; inconclusive = weaker or top-dose-only fall, or a rising curve; inactive = flat or poorly fitted curve;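 also: top concentration of the series not given in the record; excess ADP was the control for the full effect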
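Purified YjeE (10 uM) with BODIPY Texas Red-labeled ADP probe (2 uM); compounds pin-transferred, 15 min at room temperature. Binding inhibition read as decreased fluorescence polarization; ADP titration as control.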
The depositor's hits bear a star; i = inactive; ? = inconclusive; · = no result given.

Start of the listing, in advance (4 entries):
YjeE inh	PK Bst	SMILES
·	>26	Nc1[nH]nc2nc(NCc3ccccc3)c3c(c12)CCN(Cc1ccccc1)C3
i	·	O=c1c(-c2ccc(F)c(F)c2)nc2cncnc2n1C1CC1
i	·	CC(C)(O)CCC(C)(C)O
i	·	CCS(=O)(=O)N(C)[C@@H]1c2cc(C#N)ccc2OC(C)(C)[C@H]1O

The whole of this part, from the start:
YjeE inh	PK Bst	SMILES
·	>26	Nc1[nH]nc2nc(NCc3ccccc3)c3c(c12)CCN(Cc1ccccc1)C3
i	·	O=c1c(-c2ccc(F)c(F)c2)nc2cncnc2n1C1CC1
i	·	CC(C)(O)CCC(C)(C)O
i	·	CCS(=O)(=O)N(C)[C@@H]1c2cc(C#N)ccc2OC(C)(C)[C@H]1O
i	>57	COc1cc(NC(=O)CSc2nnc(C)s2)cc(OC)c1
i	?	COc1ccc2cc3cc(C(=O)NCCN4CCN(Cc5ccccc5)CC4)oc3nc2c1
i	>57	CC1CCCN(C(=O)C2CCN(CCCc3ccccc3)CC2)C1 (configuration not stated)
i	·	CC[C@@H]1CN2CCc3cc(OC)c(OC)cc3[C@H]2C[C@@H]1C[C@@H]1NCCc2cc(OC)c(OC)cc21
i	·	CC(C)(C)c1ccc(OCC2CO2)cc1 (configuration not stated)
i	>57	CCS(=O)(=O)N1CCC(C(=O)NCc2ccc(F)cc2)CC1
i	>57	Cn1c(SCc2cccnc2)nc2cccnc21
i	i	CCNc1nnc(-c2ccc(C)cc2)o1
i	i	Clc1ccc(-c2nnc3sc(-c4ccc(Br)o4)nn23)cc1
i	i	COCCCN(C(C)=O)c1nc(-c2ccc(OC)cc2)cs1
i	>57	CCc1cccc(CC)c1NC(=O)CSc1nnc(C(C)C)n1CC
i	·	Cc1c(NC(=O)C2CCCN(S(=O)(=O)c3cnc[nH]3)C2)c(=O)n(-c2ccccc2)n1C (configuration not stated)
i	·	O=[N+]([O-])c1cccc(I)c1
i	·	O=C(c1ccc(N2CN(C(=O)c3ccco3)c3nc4ccccc4nc32)cc1)N1CCOCC1
i	>57	CCN(CC(=O)NC1CCS(=O)(=O)C1)c1nc(-c2ccccc2)nc2ccccc12 (configuration not stated)
i	>57	COc1ccc2cc(C3(C)NC(=O)N(CC(=O)NCc4ccco4)C3=O)ccc2c1 (configuration not stated)
i	·	CCOC(=O)NC(Nc1ncccn1)(C(F)(F)F)C(F)(F)F
i	·	CCOC(=O)N1CCN(S(=O)(=O)c2ccc(C)cc2)C1c1ccccc1 (configuration not stated)
i	·	CC(=O)O[C@@H]1C(=O)[C@@]2(C)[C@H](O)C[C@H]3OC[C@]3(OC(C)=O)[C@@H]2[C@H](OC(=O)c2ccccc2)[C@@]2(O)C[C@H](OC(=O)[C@@H](O)[C@@H](NC(=O)c3ccccc3)c3ccccc3)C(C)=C1C2(C)C (stereo in doubt)
i	·	CC(C)(Oc1ccc([C@@H]2CC2(Cl)Cl)cc1)C(=O)O
i	·	OC1CCN(c2ncnc3nc[nH]c23)CC1
i	>11	CCc1ncc(C(O)c2cccc3ccccc23)n1C (configuration not stated)
i	·	O=C(Cn1c(-c2cncs2)nc2ccccc21)NCCc1ccccc1
i	>57	CCOc1cccc(OCCCCN2CCCCC2)c1
i	>57	COC(=O)CN(c1ccccc1)S(=O)(=O)c1ccc(F)cc1
i	·	CCCCN1C(=O)/C(=C2\SC(N3CCCCC3)=NC2=O)c2ccccc21
i	>57	COc1ccc(-c2nnc(SCC(=O)NCc3ccco3)o2)cc1
i	>57	Cc1cc(C)n(-c2ccc(C(=O)N3CCc4ccccc43)cc2)n1
i	·	C[C@]12CCC3c4ccc(OCC(=O)O)cc4CCC3C1CCC2=O (some centres not stated)
i	>57	COc1ccc(N2CC(C(=O)Nc3ncccc3C)CC2=O)cc1 (configuration not stated)
i	·	O=c1nc(N2CCOCC2)ccn1-c1nc(-c2ccccc2)oc1-c1ccccc1
i	>57	COC(=O)CSc1nnc(C)n1-c1cccc(C#N)c1
i	>57	Cc1onc(-c2ccccc2)c1C(=O)NC(CC(=O)O)c1ccc(OC(C)C)cc1 (configuration not stated)
i	>57	CSc1nc(C)cc(OCC#N)n1
i	>57	CC1CCCCC1NS(=O)(=O)c1ccc(S(=O)(=O)N2CCCC2)cc1 (configuration not stated)
i	>57	Cc1cc(Cl)ccc1N1C(=O)CC(SCCC(=O)O)C1=O (configuration not stated)
i	>57	CC(C)OC(=O)C(C#N)c1nc2ccccc2nc1N1CCN(Cc2ccccc2)CC1 (configuration not stated)
i	·	CCc1nccn1S(=O)(=O)c1ccc2ccccc2c1
i	>57	Cc1cccc(Nc2n[nH]c(=S)s2)c1C
i	·	Cn1c(CSc2nc3ccccc3s2)n[nH]c1=S
i	·	Cc1nn2c(-c3ccco3)nnc2c2ccccc12
i	>57	CCOC(=O)c1ccc(COC(=O)c2cc3ccccc3oc2=O)o1
i	>57	O=C(Cc1nc(-c2ccc(Br)s2)cs1)NCCN1CCOCC1
i	>57	Cc1cc(C(=O)OCc2nnc(-c3ccccc3)o2)c(C)n1-c1ccccc1
i	>57	COc1ccc(N2CCN(CC(=O)N3CCC(C)CC3)CC2)cc1
i	>57	Cn1nnc(NC(=O)CSc2nnnn2-c2ccc(F)cc2)n1

(next part)
YjeE inh	PK Bst	SMILES
i	>57	CCCN1CCN(CCCNC(=O)C2CCCN(c3nnc(-n4cccc4)s3)C2)CC1 (configuration not stated)
i	·	CC(=O)NC(CC(C)C)C(=O)NC(=O)NCc1ccccc1 (configuration not stated)
i	·	COc1ccc(-c2nc3cnc(Oc4cccc(Cl)c4)nc3n(CCC#N)c2=O)cc1
i	>57	CC1CCN(C(=O)C2CC(c3ccc(F)cc3)=NO2)CC1 (configuration not stated)
i	·	COc1ccc(-c2c(C)oc3c(CN4CCN(C)CC4)c(O)ccc3c2=O)cc1
i	>57	Cc1nc2nc[nH]n2c(=O)c1NC(=O)c1cccc(OCC(C)C)c1
i	>57	CCn1c(SCC(=O)Nc2ccccc2C)nnc1-c1ccccc1O
i	>57	N#CC1=C(c2ccccc2)N=P(N2CCOCC2)(N2CCOCC2)N=C1N1CCOCC1
i	>57	Cc1nc2ncnn2c(N2CCN(c3cccc(C(F)(F)F)c3)CC2)c1C
i	·	c1nc(NC2CCCCCC2)c2[nH]cnc2n1
i	>57	O=C1C2C3C=CC(C3)C2C(=O)N1c1ccc2c(c1)CCC2 (configuration not stated)
i	>57	O=C(COC(=O)c1n[nH]c2ccccc12)NC(=O)NC12CC3CC(CC(C3)C1)C2
i	·	COc1ccc(-c2cc(=O)oc3cc(OCc4nn[nH]n4)ccc23)cc1
i	·	Cc1cc(N)n(-c2nc(-c3cccnc3)nc3ccccc23)n1
i	·	N#Cc1cccc(-c2nc3cnc(N4CCOCC4)nc3n(C3CC3)c2=O)c1
i	>57	CCN(CC)S(=O)(=O)c1csc(C(=O)Nc2ccccn2)c1
i	>57	O=C(CSc1nc2c(c(=O)n1-c1ccc(F)cc1)SCC2)NCc1ccco1
i	>57	O=C(CSc1nc2ncccc2[nH]1)c1ccc(F)cc1
i	i	Cc1ccc(S(=O)(=O)Nc2cccc3ncccc23)s1
i	>57	O=C(Nc1nc(-c2ccc3c(c2)OCCO3)cs1)c1ccc(S(=O)(=O)N2CCCCC2)cc1
i	>57	Cc1nc2c(F)c(F)c(C(F)(F)F)c(F)c2[nH]1
i	>57	Cc1cc(C(=O)Nc2cccc3ncccc23)no1
i	·	Cc1ccc(S(=O)(=O)N(C)c2ccc(C(=O)O)cc2)cc1
i	>57	COc1cccc(-n2cc3c(=O)n(C)c(=O)n(C)c3c2)c1
i	·	Cc1cc(-c2ccc(N=Nc3cc(S(=O)(=O)O)c4ccccc4c3N)c(C)c2)ccc1N=Nc1cc(S(=O)(=O)O)c2ccccc2c1N

Part of the list above, with bars between the fields:
canonical_smiles | YjeE inh | PK Bst
CCOC(=O)N1CCN(S(=O)(=O)c2ccc(C)cc2)C1c1ccccc1 (configuration not stated) | i | ·
CC(=O)O[C@@H]1C(=O)[C@@]2(C)[C@H](O)C[C@H]3OC[C@]3(OC(C)=O)[C@@H]2[C@H](OC(=O)c2ccccc2)[C@@]2(O)C[C@H](OC(=O)[C@@H](O)[C@@H](NC(=O)c3ccccc3)c3ccccc3)C(C)=C1C2(C)C (stereo in doubt) | i | ·
CC(C)(Oc1ccc([C@@H]2CC2(Cl)Cl)cc1)C(=O)O | i | ·
OC1CCN(c2ncnc3nc[nH]c23)CC1 | i | ·
CCc1ncc(C(O)c2cccc3ccccc23)n1C (configuration not stated) | i | >11

One compound at a time, from the list above. Screens in order: YjeE inh | PK Bst
Record of CCCN1CCN(CCCNC(=O)C2CCCN(c3nnc(-n4cccc4)s3)C2)CC1 (configuration not stated) = i | >57
Record of O=C1C2C3C=CC(C3)C2C(=O)N1c1ccc2c(c1)CCC2 (configuration not stated) = i | >57
Record of Cc1cc(C)n(-c2ccc(C(=O)N3CCc4ccccc43)cc2)n1 = i | >57
Record of Cc1cc(Cl)ccc1N1C(=O)CC(SCCC(=O)O)C1=O (configuration not stated) = i | >57
Record of COc1ccc2cc3cc(C(=O)NCCN4CCN(Cc5ccccc5)CC4)oc3nc2c1 = i | ?

Continuation.
YjeE inh	PK Bst	SMILES
i	·	C/C=C\C[C@@H](C)[C@@H](O)[C@H]1C(=O)N[C@@H](CC)C(=O)N(C)CC(=O)N(C)[C@@H](CC(C)C)C(=O)N[C@@H](C(C)C)C(=O)N(C)[C@@H](CC(C)C)C(=O)N[C@@H](C)C(=O)N[C@H](C)C(=O)N(C)[C@@H](CC(C)C)C(=O)N(C)[C@@H](CC(C)C)C(=O)N(C)[C@@H](C(C)C)C(=O)N1C
i	>57	COc1ccc(S(=O)(=O)NC(CC(=O)NCc2ccco2)c2ccco2)cc1 (configuration not stated)
i	>57	Brc1cnn(-c2nc(N3CCOCC3)nc(N3CCOCC3)n2)c1
i	·	CNC(=O)[C@@H]1O[C@@H](n2cnc3c(NCc4ccc(N)cc4)ncnc32)[C@@H](O)[C@H]1O
i	>57	C=CCOc1ccc(/C(O)=C2\C(=O)C(=O)N(CCOC)C2c2cccnc2)cc1 (configuration not stated)
i	·	O=C(O)/C=C/c1ccc(/C=C/C(=O)O)cc1
i	>57	CC1(C)NC(=O)N(CC(O)CNC23CC4CC(CC(C4)C2)C3)C1=O (configuration not stated)
i	·	COc1cccc(-c2nc(CS(=O)CC(=O)NCc3ccc4c(c3)OCO4)c(C)o2)c1 (configuration not stated)
i	>57	COc1ccc(Cn2nnnc2C(c2ccc(F)cc2)N2CCN(C3CCCC3)CC2)cc1 (configuration not stated)
i	>57	O=C(Cn1cnc2c(cnn2-c2ccccc2)c1=O)NCc1ccccc1
i	>57	CCC(C)NC(=O)c1c(N)n(/N=C/c2ccccn2)c2nc3ccccc3nc12 (configuration not stated)
i	>57	COc1cccc(C(=O)N2CCN(S(=O)(=O)Cc3ccccc3)CC2)c1
i	>57	C[C@H](NC(=O)OC(C)(C)C)C(=O)NCC1CCC(C(=O)O)CC1 (some centres not stated)
i	>57	CCOc1cccc(NC(=O)C2CCCN(S(=O)(=O)c3ccc(-n4cnnn4)cc3)C2)c1 (configuration not stated)
i	·	OC1(CN2CCOCC2)C2CN3CCN(C2)CC1(c1ccccc1)C3 (configuration not stated)
i	>57	Cc1occc1-c1nnc(SCC(=O)NCc2cccs2)n1CC1CCCO1 (configuration not stated)
i	>57	O=C(Oc1ccc2c(c1)OCC2=O)c1ccccc1
i	>57	CC(C)CNC(=O)CN(C1CCCCC1)S(C)(=O)=O
i	·	COC(=O)[C@@]1(Cc2ccc(F)cc2)[C@H]2c3cc(C(=O)N(C)C)n(Cc4ccsc4Br)c3C[C@H]2CN1C(=O)c1ccccc1
i	>57	CCC(=O)Nc1ccc2nc(C3CC3)n(Cc3ccccc3)c(=O)c2c1
i	>57	COc1ccccc1NS(=O)(=O)c1ccc(NC(=O)CCNC(=O)c2ccco2)cc1
i	>57	Cc1n[nH]c(C)c1S(=O)(=O)N1CCCC(C(=O)N2CCN(c3ccc(Cl)cc3)CC2)C1 (configuration not stated)
i	>57	COC(=O)c1ccc2c(=O)n(Cc3ccc4c(c3)OCO4)c(SCC(=O)N3CCCC3)nc2c1
i	>57	CSc1c(CC(=O)NCCO)n(C)c2ccccc12
i	>57	CC1CCCCC1NC(=O)CN1CCC(O)(c2ccc(F)cc2)CC1 (configuration not stated)
i	>57	CCOc1cc(C)c(Cl)cc1S(=O)(=O)N1CCCC1
i	·	O=S(=O)(NC1CCN(Cc2ccccc2)CC1)c1cccc2cccnc12
i	i	Cc1ccc(S(=O)(=O)NCC2CCC(C(=O)NCc3ccco3)CC2)cc1 (configuration not stated)
·	>26	O=C(c1ccc(=O)oc1)N1CCN(C(c2ccccc2)c2ccccc2)CC1
i	·	Cc1nn(C)c(C)c1S(=O)(=O)N1CCC(C(=O)NC(C)c2ccccc2)CC1 (configuration not stated)
i	>57	COc1ccc(CCn2c(SCC(=O)Nc3cc(C)on3)nc3ccsc3c2=O)cc1OC
i	>57	CCOC(=O)N1CCN(c2ncnc3c2cnn3-c2ccc(Cl)cc2)CC1
i	>57	CCOC(=O)c1c(C)oc2c1c(/C=N/c1ccccn1)c(O)c1ccccc12
i	·	COc1ccc2[nH]cc(CCNc3ccnc(-c4ccccc4C(F)(F)F)n3)c2c1
i	>57	CCOC(=O)c1[nH]c(C)c(C(=O)NCCc2ccc(OC)cc2)c1C
i	>57	CCOC(=O)c1ccccc1NC(=O)c1ccccc1N(C)S(C)(=O)=O
i	·	CCOC(=O)C1=C(c2ccccc2)N=C2SCC(=O)N2C1c1ccc2c(c1)OCO2 (configuration not stated)
·	>26	COC(=O)CN(c1nc(C)c(Cl)c(OC)n1)S(=O)(=O)c1ccc(C)cc1

Only part of the results is shown; count on the stated rates, not on these rows.
